# UCH37 DUB inh – blocks the human deubiquitinase UCH37; hit rate 0.33% among 330,000; inhibition, % (no concentration beside the values); purified proteasome/UCH37, Ub-AMC cleavage fluorescence; Q9Y5K5;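 active means mean of two replicates above 20%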;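 further: 0% = compound-free wells with enzyme and 100% = wells lacking proteasome; stock transfer was 100 nL into about 20 µL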
# Target sequence (Q9Y5K5 whole entry, looked up): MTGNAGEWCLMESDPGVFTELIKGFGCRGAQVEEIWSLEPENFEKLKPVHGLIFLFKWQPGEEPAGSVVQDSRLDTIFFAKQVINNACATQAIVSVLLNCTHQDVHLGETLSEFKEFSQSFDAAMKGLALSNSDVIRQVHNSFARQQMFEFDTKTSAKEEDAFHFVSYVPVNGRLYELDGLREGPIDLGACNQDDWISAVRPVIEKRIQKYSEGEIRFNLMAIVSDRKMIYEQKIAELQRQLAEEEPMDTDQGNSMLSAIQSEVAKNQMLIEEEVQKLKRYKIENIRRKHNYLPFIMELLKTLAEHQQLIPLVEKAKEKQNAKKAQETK
#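 Material: Human UCH37 enzyme supplied as purified proteasome complex | Schedule: 30 min preincubation with enzyme, 25 min cleavage at room temperature | Detection: AMC fluorescence 355/460 nm | Measure: % inhibition of Ub-AMC cleavage fluorescence | Controls: Wells without proteasome as full block, compound-free enzyme plus substrate as uninhibited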
# B2AR ag – activates human beta-2 adrenergic receptor causing internalization | P07550 | Am2.2-beta2AR cells, FAP receptor internalization, flow cytometry; reference of the scale not given here | response, % (no concentration beside the values) | hit rate 0.43% among 340,000 | AID 504454;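 active means response above a set limit, near 3 SD of response in nonfluorescent compounds, cut at about 42% in these data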;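 further: stock transfer was 100 nL into about 11 µL; a reference agonist was the positive control; negative values mostly stem from fluorescent compounds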
# Target sequence (P07550 whole entry, looked up): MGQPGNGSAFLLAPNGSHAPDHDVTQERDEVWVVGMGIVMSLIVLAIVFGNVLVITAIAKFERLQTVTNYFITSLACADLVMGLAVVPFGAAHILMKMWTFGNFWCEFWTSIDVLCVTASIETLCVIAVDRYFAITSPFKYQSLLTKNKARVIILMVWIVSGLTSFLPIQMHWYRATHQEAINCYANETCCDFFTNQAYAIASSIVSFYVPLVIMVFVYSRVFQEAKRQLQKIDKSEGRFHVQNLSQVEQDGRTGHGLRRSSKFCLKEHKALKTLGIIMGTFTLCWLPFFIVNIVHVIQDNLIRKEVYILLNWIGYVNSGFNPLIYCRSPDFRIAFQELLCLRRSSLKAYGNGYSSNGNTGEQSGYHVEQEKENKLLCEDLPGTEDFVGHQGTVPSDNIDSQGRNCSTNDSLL
# * hit, by the source's call. This is a subset; rates above refer to the full screens.
SMILES,UCH37 DUB inh,B2AR ag
O=C1CC(c2ccccc2)Oc2ccc(Cl)cc21 (stereo not given),-8.4,-7.4
O=C(NNC(=O)c1ccc2ccccc2c1)c1cccc(Br)c1,1.7,-0.4
O=C1C(=Cc2cccs2)Oc2ccccc21,-1.7,-1.0
OC(c1ccccc1)C(O)C(c1ccccc1)N1CCCCC1 (stereo not given),3.5,-1.6
O=C1NC(=O)C(Cc2ccc(Cl)cc2)(c2ccccc2)N1 (stereo not given),0.4,-1.1
CCOC(=O)c1sc(NC(=O)c2cccs2)nc1C,-31.5,-18.9
COc1ccc(-c2noc(CCC(=O)N3CCC(c4cc(C)ccc4C)CC3)n2)cc1,1.3,4.7
NC(=O)c1ccc(NC(=O)COC(=O)c2c[nH]c3ccccc23)cc1,1.8,0.6
O=C(c1ccc(F)cc1)C1CCN(Cc2ccccc2)CC1,-2.4,1.3
COc1ccc(-c2cc(C(=O)N3CCCCCC3)c3ccccc3n2)cc1,-293.1,3.5
COc1ccccc1CNS(=O)(=O)c1ccc(N2CCCC2)cc1Br,1.7,-20.0
CC[C@@]1(C(=O)OC)N[C@H](CN(C)C(=O)Nc2ccc(F)cc2)[C@@H]2C(=O)N(Cc3ccccc3)C(=O)[C@@H]21,6.2,1.7
CCN(CC)C(=O)[C@H]1CC(CC(=O)NCC23CC4CC(CC(C4)C2)C3)C(=O)N2CCc3c([nH]c4ccc(OC)cc34)[C@]12C (stereo not given in full),-4.3,-6.1
Cc1cccc(NC(=O)CSCC(=O)Nc2ccc(N3CCOCC3)cc2N2CCOCC2)c1,1.9,-1.0
COc1ccc2sc(-c3ccccc3OC)c(C#Cc3cncn3C)c2c1,-15.9,9.3
CCOC(=O)c1ccc(N2Cc3ccccc3C2=NC(=O)c2cccs2)cc1,-29.6,-12.2
CC(=O)N/C(=C\c1ccccc1)C(=O)OCC(=O)Nc1cc(S(=O)(=O)N(C)C)ccc1Cl,1.1,-14.2
c1ccc2nc3c(ccc4ccccc43)cc2c1,-31.4,0.7
O=C(Cc1cccs1)N[C@@H]1c2ccccc2CC[C@@H]1OCc1ccccc1,-0.9,2.5
COc1ccc(CN(C)CC(=O)Nc2ccccc2C(=O)NC2CC2)cc1OC,4.5,18.0

# Profiles as entered above. Screens in order: UCH37 DUB inh | B2AR ag
# O=C(c1ccc(F)cc1)C1CCN(Cc2ccccc2)CC1 is listed as -2.4 | 1.3
# COc1ccc(CN(C)CC(=O)Nc2ccccc2C(=O)NC2CC2)cc1OC is listed as 4.5 | 18.0
# O=C(Cc1cccs1)N[C@@H]1c2ccccc2CC[C@@H]1OCc1ccccc1 is listed as -0.9 | 2.5

# (listing goes on)
SMILES,UCH37 DUB inh,B2AR ag
C=CCOc1ccc(C=CC(=O)c2c(O)c(OC)c(OC)c(OC)c2OC)cc1,3.0,4.8
O=S(=O)(Nc1ccc2ccccc2c1)N1CCCCC1,0.7,2.3
COc1ccccc1NS(=O)(=O)c1ccc(NC(=O)c2ccccn2)cc1,2.0,-0.5
Cc1cc(C)c(C=NNc2nc3c([nH]2)c(=O)n(C)c(=O)n3C)c(C)c1,-11.8,4.4
COC(=O)[C@]1(Cc2ccccc2)N[C@H](CN(C)C(=O)c2ccc(C)cc2)[C@@H]2C(=O)N(Cc3ccccc3)C(=O)[C@@H]21,0.7,7.8
CN(C(=O)COC(=O)COc1ccc(N(C)S(=O)(=O)c2ccc(Cl)cc2)cc1)c1ccccc1,-1.3,0.1
CN(CC(=O)Nc1ccc(Cl)c(S(=O)(=O)N2CCOCC2)c1)C(=O)c1ccc(C#N)cc1,3.9,-2.9
Cc1c2c(cc3c1[nH]c1ccccc13)C=NCC2,13.3,-12.1
Cc1cccc(NC(=O)CSCC(=O)N(C)Cc2ccc3c(c2)OCCO3)c1,2.0,-1.6
COc1ccc(NC(=O)CCNC(=O)c2ccc([N+](=O)[O-])cc2)cc1S(=O)(=O)N1CCCCC1,1.6,-2.9
COc1ccc(N(C)S(=O)(=O)c2cccc(C(=O)N3CCN(c4cccc(C)c4C)CC3)c2)cc1,2.3,0.2
COc1ccc(S(=O)(=O)N2CCOCC2)cc1NC(=O)c1ccc(S(=O)(=O)N2CCCCC2)cc1,1.8,9.3
CN(C)/C=C(/C(=O)c1ccccc1Cl)S(C)(=O)=O,3.1,-4.5
CCN(CC(=O)Nc1c(F)cccc1F)C(=O)c1ccc2c(=O)n3c(nc2c1)CCC3,-12.2,-2.2
CN(C)C(CNC(=O)c1cc(S(=O)(=O)N2CCOCC2)ccc1Cl)c1cccs1 (stereo not given),1.8,17.4
COC(=O)CCN(Cc1ccccc1)S(=O)(=O)c1ccccc1Br,3.0,8.8
CC(=O)c1ccc(S(=O)(=O)Nc2ccc(C(=O)NC3CC3)cc2)cc1,2.2,-3.2
O=C(Nc1ccc2c(c1)C(N1CCOCC1)c1ccccc1-2)C(F)(F)F (stereo not given),0.5,8.2
Cc1ccc2c(c1)[C@H]1[C@H](CO2)[C@H](c2ccccc2)[C@]2(C)C(=O)Nc3ccc(F)cc3C(=O)N12,1.3,8.8
CCN(CC)CCCn1c(C)cc2c(c1=O)C(c1cccc(Cl)c1)C(C#N)=C(N)O2 (stereo not given),3.2,5.7

# The listing continues:
SMILES,UCH37 DUB inh,B2AR ag
Cc1cc2ccccc2cc1C(=O)c1ccccc1,0.7,2.7
CC(=O)c1ccc(N2CCN(Cc3cc(=O)n4c(-c5ccccc5)csc4n3)CC2)cc1,3.7,11.0
c1ccc(NCCC2OCC3(CO2)COC(CCNc2ccccc2)OC3)cc1 (stereo not given),3.4,0.4
CC(=O)c1cc(Cl)ccc1OCC(=O)Nc1cccc(S(=O)(=O)N2CCCC2)c1,5.7,-2.8
CCn1c(N2CCN(C(c3ccccc3)c3ccccc3)CC2)nc2c1c(=O)[nH]c(=O)n2C,4.1,-8.8
O=C(NCCCN1CCCC1=O)c1cc(S(=O)(=O)N2CCN(c3ccccc3)CC2)ccc1Cl,1.3,3.0
CCOC(=O)C1CCCC12Nc1cccc3cccc(c13)N2 (stereo not given),4.7,-2.7
CCN(c1ccccc1)S(=O)(=O)c1cccc(C(=O)OCC(=O)c2c(N)n(C)c(=O)n(C)c2=O)c1,2.4,11.7
Cc1cc(C)c(S(=O)(=O)Oc2ccccc2[N+](=O)[O-])c(C)c1,2.0,-5.8
CCCCn1cnc2c(SCc3ccc(Br)cc3)nc(N)nc21,2.9,-16.0
Nc1cc(Cl)cc2c1-c1ccc(Cl)cc1C2,3.3,-0.4
Cc1ccc(NC(=O)C(C)OC(=O)COc2cccc(C(F)(F)F)c2)cc1S(=O)(=O)N1CCOCC1 (stereo not given),-0.2,0.5
Cc1cccc(NS(=O)(=O)c2ccc(C)c(C(=O)NCc3ccccn3)c2)c1,5.6,0.4
CCOC(=O)C1CN(Cc2ccccc2)C(=O)C1=O (stereo not given),1.9,7.0
COC(=O)c1ccc2c(c1C(=O)OC)CN(S(=O)(=O)C(C)(C)C)[C@H]2CCO,0.0,-3.0
O=S(=O)(NCCc1ccc(F)cc1)c1ccc(F)cc1Br,0.1,-13.6
CC(C)CN(C(=O)C1CCCO1)c1c(N)n(CC(C)C)c(=O)[nH]c1=O (stereo not given),-1.4,-0.8
COCCN(C(=O)COC(=O)C(C)(C)Oc1ccc(Cl)cc1)c1c(N)n(Cc2ccccc2)c(=O)[nH]c1=O,1.5,-0.1
CCN(CC)C(=O)[C@H]1C[C@H](CC(=O)NCCCN(C)C)C(=O)N2CCc3c([nH]c4cc(CCC(=O)N(C)C)ccc34)[C@]12C,2.5,-4.0
CCOC(=O)c1cc2c(=O)n3cccc(C)c3nc2n(Cc2ccco2)c1=NC(=O)c1ccc(C)cc1,0.3,-6.4

# New compounds follow
SMILES,UCH37 DUB inh,B2AR ag
Cn1nc(C(=O)Nc2nc(-c3ccccn3)cs2)c2ccccc2c1=O,-1.4,4.7
COc1ccc(NS(=O)(=O)c2c(F)cccc2F)cc1S(=O)(=O)N1CCOCC1,6.6,-1.2
CN(CCc1ccccc1)C(=O)c1ccc(NC(=O)Cc2ccc(NC(=O)C3CCCN(C(=O)CCc4ccccc4)C3)cc2)cc1 (stereo not given),4.2,3.3
C=CC[C@@H](CC(=O)N[C@@H](CO)Cc1ccccc1)C(=O)N[C@@H](COC(=O)[C@@H](CC=C)Cc1ccc(F)cc1)Cc1ccccc1,1.0,-0.6
O=C1COc2ccc(C(=O)COC(=O)c3ccc([N+](=O)[O-])cc3Cl)cc2N1,2.4,8.1
Cc1cc(Br)ccc1OCc1nnc(-c2ccccc2)o1,2.7,-4.2
O=C(COC(=O)c1cc(=O)[nH]c2ccccc12)Nc1nc(-c2ccc(F)cc2)cs1,0.5,0.9
CCOC(=O)/C=C1/SCC(=O)N1CC(=O)Nc1ccc2c(c1)CCC2,2.7,7.6
Cc1ccc(S(=O)(=O)N2CCN(C(=O)COC(=O)/C=C/c3cccc([N+](=O)[O-])c3)CC2)c(C)c1,0.5,20.8
C(=C\c1sc(Nc2ccccc2)n[n+]1-c1ccccc1)/c1ccccc1,3.6,26.5
CCOc1cc(C=NN2CCCCCC2)ccc1O,18.2,1.1
COc1ccc(-c2cn3nc4c(nc3n2)CCCC4)cc1,-13.5,-5.3
COc1ccccc1C1CC(=O)Oc2cc(C)c(Cl)c(C)c21 (stereo not given),0.6,6.5
Cc1cc(OCC(=O)OCC(=O)NCc2cccs2)ccc1Cl,1.2,6.5
C1=C[C@H]2CC[C@@H]1N(c1ccccc1)O2,-2.2,-4.0
CN(C(=O)c1ccc(NC(=O)Cc2cccc(NC(=O)C3CCN(C(=O)C4CCC4)CC3)c2)cc1)C1CC1,2.2,-7.6
CN(CCc1ccccc1)C(=O)c1ccc(NC(=O)Cc2ccc(NC(=O)C3CCN(C(=O)C4CCCC4)CC3)cc2)cc1,1.5,-5.1
Cc1ccc(S(=O)(=O)N2CCN(C(=O)COC(=O)/C=C/c3ccc(Cl)cc3)CC2)c(C)c1,1.8,0.3
COc1ccc(-c2nc3ccccc3s2)cc1,0.9,-6.1
CCC(C)N(C(=O)CSc1nnc(-c2cccs2)n1C1CC1)C1CCS(=O)(=O)C1 (stereo not given),4.1,-2.9

# (cont.)
SMILES,UCH37 DUB inh,B2AR ag
CN(CCc1ccccc1)C(=O)c1cccc(NC(=O)Cc2cccc(NC(=O)C3CCCN(S(=O)(=O)c4cccc([N+](=O)[O-])c4)C3)c2)c1 (stereo not given),0.8,1.4
O=C(O)C1=CCCc2ccc(F)cc21,0.3,-3.9
CCn1nnnc1SCC(=O)N1N=C(c2cccs2)CC1c1cccs1 (stereo not given),-0.5,2.8
COC(=O)[C@@]1(C)[C@H]2C(=O)N(C)C(=O)[C@H]2[C@H]2CN=C(SCc3ccc(Cl)cc3)N21,4.3,3.1
Cc1cnc(N=Nc2ccccc2)[nH]1,6.6,-3.3
CC(=O)c1ccc(OCCCC(=O)Nc2ccc(C)c(S(=O)(=O)N3CCCCC3)c2)cc1,3.8,4.9
COc1cccc(C=NNC(=O)c2ccncc2)c1O,8.7,-2.0
CC1=NN(c2ccccc2C)C(=O)C1,-0.3,-0.5
CC[C@]12c3[nH]c4cc(-c5ccco5)ccc4c3CCN1C(=O)[C@@H](CC(=O)NCCc1ccccn1)C[C@@H]2C(=O)N1CCN(C(=O)C2CC2)CC1,-41.0,-2.9
Cc1ccc(C)c(N2CCN(C(=O)CCc3nc(-c4ccccc4)no3)CC2)c1,3.6,-2.1
O=C(/C=C/c1ccc(Cl)cc1)N1CCN(CCN2C(=O)c3cccc4cccc(c34)C2=O)CC1,0.9,-8.1
COc1cc2ccccc2cc1C(=O)N1CC(C)OC(C)C1 (stereo not given),-4.2,-3.4
CN(CC(=O)NCCc1ccc(F)cc1)CC(=O)Nc1ccc(F)c(F)c1F,1.9,0.9
COc1cc([C@@H]2CC=C(C(=O)O)[C@H](c3ccc(C)cc3)N2S(=O)(=O)c2ccc(C)cc2)cc(OC)c1OC,-1.0,-2.4
CC(C)(C)C(=O)Nc1ccc(C(=O)COC(=O)C2CC2)cc1,1.2,1.7
O=C(Nc1ccccc1)OCC1COC(c2ccccc2)(c2ccccc2)O1 (stereo not given),1.0,-7.1
CCN(CC)S(=O)(=O)c1ccc(=O)n(CC(=O)N2Cc3ccccc3CC2C(N)=O)c1 (stereo not given),0.1,1.4
O=C(Nc1ccc(S(=O)(=O)N2CCCCC2)cc1)c1ccc(=O)[nH]c1,1.5,-15.1
CN(C)CCCNC(=O)C[C@H]1C[C@H](C(=O)N2CCOCC2)[C@@]2(CCC3CCCC3)c3[nH]c4cc(-c5ccco5)ccc4c3CCN2C1=O,-6.0,63.1*
O=C(COC(=O)c1ccc(O)cc1O)NC12CC3CC(CC(C3)C1)C2,1.2,3.0

# (listing goes on)
SMILES,UCH37 DUB inh,B2AR ag
CN1CCN(S(=O)(=O)c2cccc(C(=O)N(C)CC(=O)Nc3ccc(Cl)c(Cl)c3)c2)CC1,3.0,0.6
COc1ccc(CC(=O)OCC(=O)NC2CCCCCC2)cc1OC,1.0,-5.8
COc1cccc(COC(=O)c2cc(S(=O)(=O)N3CCOCC3)ccc2Cl)c1OC,0.8,5.5
CC(=O)c1ccc(S(=O)(=O)NCCC(=O)NC(C)c2ccncc2)cc1 (stereo not given),0.2,-2.1
CN1C(C)(C)CC(=NO)CC1(C)C,-0.1,7.5

# Source: PubChem (several laboratories)
